# Assay outcomes as filed in PubChem.
# Hsc70 ATP site = small molecules displacing fluorescent ligand from Hsc70 – biochemical, fluorescence polarization, primary screen (AID 568); Hsc70 fluorescence polarization, probe displacement; higher % means a stronger effect; strong numbers were not always called active; displacement, % at 20 µM, or IC50 in µM where a hit was titrated; 83,000 tested, under 10 active;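 active means displacement above 50% without optical interference and an IC50 on retest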;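 further: ATPase domain with a fluorescein-tagged ATP probe; 0% = vehicle and 100% = excess ADP; read after one hour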
# MT1-MMP reporter = MT1-MMP gene expression reporter suppression – cell-based, luciferase reporter, luminescence (AID 618) | MT1-MMP promoter luciferase reporter cells, luminescence | calls from a first round at 10 µM; hits with a dose series show EC50 in µM | 87,000 compounds, 0.62% hits;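 active means over half of the reporter light lost at 10 µM or EC50 under 50 µM; inactive means the rest and hits that failed the dose series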;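 further: actives suppress MT1-MMP promoter-driven transcription so potencies describe inhibitors; HT1080 fibrosarcoma cells; overnight exposure; toxic or luciferase-blocking compounds were not removed from the actives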
# WNV protease inh = inhibitors of West Nile virus NS2B-NS3 protease; P06935; 65,000 compounds, 0.18% hits; WNV NS2B-NS3 protease, fluorogenic substrate Ex360/Em465; hits give low values; z-score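 (tested at a level between 10 and 100 µM)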; AID 577;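 active means z-score at -3 or under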;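 further: score is relative to mean and spread of the compound wells of a plate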
# Target sequence (P06935 1371-1501 limits assumed): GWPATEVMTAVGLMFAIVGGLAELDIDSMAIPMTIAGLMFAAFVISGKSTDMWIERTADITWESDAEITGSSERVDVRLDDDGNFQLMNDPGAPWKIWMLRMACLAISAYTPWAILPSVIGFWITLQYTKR
# Target sequence (P06935 1502-1679 limits assumed): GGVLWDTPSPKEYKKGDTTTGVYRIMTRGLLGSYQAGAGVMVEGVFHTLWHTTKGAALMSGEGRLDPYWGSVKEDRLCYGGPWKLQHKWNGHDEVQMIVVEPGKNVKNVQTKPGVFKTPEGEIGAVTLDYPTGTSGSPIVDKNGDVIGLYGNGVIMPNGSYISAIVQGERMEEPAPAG
# Numbers without * were called inactive; i = inactive; / = not tested or not shown. A portion of the library; rates above refer to the full screens.
SMILES,Hsc70 ATP site,MT1-MMP reporter,WNV protease inh
COc1cccc(N(CC(=O)Nc2cccc(F)c2)S(C)(=O)=O)c1,-1.9%,i,-0.46
O=C(Nc1ccncc1)C1(c2ccccc2)CCCC1,2.2%,i,-0.45
CCOC(=O)N1CCN(C(=O)C2CC(=O)N(c3ccc(OC)cc3)C2c2ccc(OC)cc2)CC1 (stereo unspecified),-2.0%,i,/
Cc1cc(Nc2ccc(Br)cc2F)n2ncnc2n1,-0.8%,i,-1.06
COc1cc(C)nc(N2CCCC(C(=O)Nc3cccc(Cl)c3C)C2)n1 (stereo unspecified),1.8%,i,-0.08
COc1ccc2oc(-c3ccccc3)c(C(=O)N3CCOCC3)c2c1,5.4%,i,1.37
O=c1c2ccccc2nc(-c2ccco2)n1/N=C/c1ccco1,1.0%,i,-0.62
O=C(C1CCC(Cn2c(=O)[nH]c3ccccc3c2=O)CC1)N1CCN(c2ccccc2)CC1 (stereo unspecified),-1.0%,i,0.71
COCCn1cc(C(=O)NCc2cccs2)c2c3ccccc3n(C)c2c1=O,-1.4%,i,0.23
Cc1cccc(NC(=O)CSc2nnc(Cn3cnc4ccccc43)o2)c1,-4.5%,i,/
Cc1cc2ccccn2c1C(=O)c1ccc(Cl)cc1,1.5%,i,/
CCc1nnc(NC(=O)c2cccc(C(=O)Nc3nnc(CC)s3)n2)s1,0.1%,i,1.69
COc1ccc(S(=O)(=O)N(CC(=O)N2CCOCC2)Cc2ccccc2)cc1,10.3%,i,/
CCC(C)(C)n1nnnc1C(c1ccc2ncccc2c1)N1CCN(c2nc3ccccc3s2)CC1 (stereo unspecified),0.2%,i,-0.42
Cc1cc(C)n(-c2ncnc3sc4c(c23)CCCC4)n1,-5.0%,i,-0.77
N#Cc1c(N2CCCC2)nc(N)c2c(N)nc(N3CCCC3)cc12,-5.7%,i,-0.25
O=P(O)(CCc1ccncc1)CN1CCCCC1,-3.4%,i,-1.05
O=C(Nc1ccc(Cl)c(C(F)(F)F)c1)C1CCCN(S(=O)(=O)c2cnc[nH]2)C1 (stereo unspecified),2.9%,i,-0.37
Cc1ccc(C(=O)Nc2ccccc2-c2ccccc2)o1,-4.0%,i,/
O=C(C(c1ccccc1)c1ccccc1)N(Cc1ccco1)C1CCS(=O)(=O)C1 (stereo unspecified),-5.7%,i,-1.57
CCCn1c(NC(=O)c2ccc(C)cc2)nc2ccccc21,1.0%,i,-0.68
N=c1oc2ccc3ccccc3c2cc1-c1nnc2n1CCCCC2,15.1%,i,4.18
O=C(OCc1ccccc1)C1=[N+]([O-])OC(C(=O)OCc2ccccc2)C1c1c[nH]c2ccccc12 (stereo unspecified),-5.0%,i,/
COc1ccc(N2C3=C(CC4=C2CC(C)(C)CC4=O)C(=O)CC(C)(C)C3)cc1,18.3%,i,/
CCNC(=O)c1cc2c(=O)n3cccc(C)c3nc2n1C,6.8%,i,-0.74
Cc1ccc(CC23CN4CCN(CC(C4)C2O)C3)c(C)c1 (stereo unspecified),2.7%,i,-0.29
O=C(Nc1ccc(N2CCN(c3ccc(O)cc3)CC2)cc1)Oc1ccccc1,5.1%,i,-0.89
Cc1noc(C)c1S(=O)(=O)N(CC(=O)NCc1ccc(Cl)cc1)c1ccc2c(c1)OCO2,3.1%,i,-0.02
CCOC(=O)c1ccc(NCc2ccncc2)cc1,-0.7%,i,/
CCOc1ccc(NC(=O)CCN2CCN(c3ccccc3F)CC2)cc1,0.2%,i,/
Nc1c(C(=O)C2CC2)sc2nc(-c3ccccc3)cc(C(F)(F)F)c12,43.1%,i,/
CCCCn1nnnc1SCC(=O)N(CC)CC,0.7%,i,/
CCN(CC)c1ccc(C2C(C(=O)OCCOC)=C(C)NC3=C2C(=O)CC(C)(C)C3)cc1 (stereo unspecified),0.4%,i,-1.11
COc1ccc(C(C)n2c(C)c3c(C)nnc(C)c3c2C)cc1 (stereo unspecified),3.5%,i,/
CCOC(=O)C1(CC)NC(c2cccc(F)c2)C2C(=O)N(CC)C(=O)C21 (stereo unspecified),7.0%,i,-0.74
COc1cc(C)c(CN2CCCCC2CO)cc1C (stereo unspecified),-2.4%,i,0.02

# Of the compounds above, these have an aryl methoxy group:
SMILES,Hsc70 ATP site,MT1-MMP reporter,WNV protease inh
COc1cccc(N(CC(=O)Nc2cccc(F)c2)S(C)(=O)=O)c1,-1.9%,i,-0.46
CCOC(=O)N1CCN(C(=O)C2CC(=O)N(c3ccc(OC)cc3)C2c2ccc(OC)cc2)CC1 (stereo unspecified),-2.0%,i,/
COc1cc(C)nc(N2CCCC(C(=O)Nc3cccc(Cl)c3C)C2)n1 (stereo unspecified),1.8%,i,-0.08
COc1ccc2oc(-c3ccccc3)c(C(=O)N3CCOCC3)c2c1,5.4%,i,1.37
COc1ccc(S(=O)(=O)N(CC(=O)N2CCOCC2)Cc2ccccc2)cc1,10.3%,i,/
COc1ccc(N2C3=C(CC4=C2CC(C)(C)CC4=O)C(=O)CC(C)(C)C3)cc1,18.3%,i,/
COc1ccc(C(C)n2c(C)c3c(C)nnc(C)c3c2C)cc1 (stereo unspecified),3.5%,i,/
COc1cc(C)c(CN2CCCCC2CO)cc1C (stereo unspecified),-2.4%,i,0.02

# The listing continues:
SMILES,Hsc70 ATP site,MT1-MMP reporter,WNV protease inh
COc1ccccc1OCCSc1ncnc2nc[nH]c12,-4.1%,i,-0.61
O=C(NC1CCCCC1)N(Cc1cc2cc3c(cc2[nH]c1=O)OCCO3)CC1CCCO1 (stereo unspecified),1.2%,i,1.88
COc1cccc2cc(C(=O)N3CCN(c4ncccn4)CC3)c(=O)oc12,-2.7%,i,-1.11
COc1ccc(NC(=O)c2ccc(CN3CCN(c4ccccc4)CC3)cc2)cc1,-7.6%,i,0.26
CC(C)(C)N1CC(c2nc3ccccc3n2CCOc2ccccc2)CC1=O (stereo unspecified),0.3%,i,/
O=C(CCc1ccc(S(=O)(=O)N2CCOCC2)cc1)OCc1nc2ccccc2s1,-3.9%,i,0.63
CCCn1nnc(NC(=O)c2ccc(Cl)cc2Cl)n1,-0.7%,i,0.91
Cc1cc(=O)[nH]c2cc(Cl)ccc12,-7.4%,i,0.88
CCOC(=O)CSc1nc2ccc(N3CCOCC3)cc2c(=O)n1Cc1ccc2c(c1)OCO2,2.8%,i,-0.13
COc1ccc(CCC(=O)N2CCN(S(=O)(=O)c3ccc4ccccc4c3)CC2)cc1,3.5%,i,/
CCOC(=O)C1CCCN(CCC(=O)Nc2ccc(F)c(F)c2)C1 (stereo unspecified),-2.8%,i,-0.25
CCCc1c(O)nc(SC2CC(=O)N(c3cc(OC)ccc3OC)C2=O)[nH]c1=O (stereo unspecified),-7.2%,i,1.61
Cc1ccc(CN(Cc2cccnc2)C(=O)CN2C(=O)COc3ccccc32)o1,11.2%,i,1.89
Cc1ccc(C(=O)N2Cc3ccccc3CC2C(=O)O)cc1 (stereo unspecified),-5.3%,i,0.84
O=C1CC(C(=O)Nc2ccc(Br)cc2)C2(CCCC2)O1 (stereo unspecified),-7.5%,i,0.01
CN1/C(=C/C(=O)C2CCC2)Sc2ccccc21,-4.3%,i,-1.28
COC(=O)c1sccc1NC(=O)c1cc(OC)cc(OC)c1,1.7%,i,/
N#CC1=C(N)C2=C(N3CCCCC3)CCCC2C1(C#N)C#N (stereo unspecified),-15.0%,i,-0.22
CC(=O)Cn1c(C(F)(F)F)nc2ccccc21,9.0%,i,-0.45
NC(=O)C1CCN(CCCNC2CC(=O)N(Cc3ccc(N4CCCC4=O)cc3)C2=O)CC1 (stereo unspecified),3.9%,i,1.13
COC(=O)C1=C(C)NC(C)=C(C(=O)OC)C1C1CC=CCC1 (stereo unspecified),-5.4%,i,0.15
O=C(CC1SC(=O)N(c2ccccc2)C1=O)Nc1ccccc1 (stereo unspecified),7.7%,i,-0.19
CCCC(=O)Nc1ccc(NC(=O)C23CC4CC(CC(C4)C2)C3)cn1,-9.5%,i,-4.83*
CCOc1ccc2nc(SCC(=O)NC(=O)NCc3ccco3)sc2c1,-1.1%,i,/
CCOC(=O)c1sc2nc(SCC(=O)NCc3ccco3)n(Cc3ccccc3)c(=O)c2c1C,3.7%,i,-0.71
Cc1cccc(N2CCN(C(c3ccc(N(C)C)cc3)c3nnnn3C(C)(C)C)CC2)c1C (stereo unspecified),-3.4%,i,/
Cc1c(C(=O)NCc2cccnc2)oc2ccc(S(=O)(=O)N3CC(C)CC(C)C3)cc12 (stereo unspecified),5.4%,i,-0.71
COC(=O)c1cc(Nc2ncnc3c2cnn3-c2ccccc2)cc(C(=O)OC)c1,-0.5%,i,-0.06
COc1cc2cc(Br)cc(Br)c2nc1C,1.5%,i,/
O=C(c1ccccc1)c1nc[nH]c1C(=O)Nc1ccccc1,-0.2%,i,-0.41
CCOC(=O)c1c(C)[nH]c(C(=O)COC(=O)c2ccccn2)c1C,6.5%,i,/
CCS(=O)(=O)N1CCN(C(=O)c2ccco2)CC1,2.7%,i,/
COc1cccc(CNc2cnc3ccccc3c2)c1O,8.3%,i,/
COc1cccc(NC(=O)CC2C(=O)NC3CCCCC3N2C(=O)c2ccc(F)cc2)c1 (stereo unspecified),-4.6%,i,/
Cc1cccc2cc(COC(=O)C(C)(C)C)c(=O)[nH]c12,0.4%,i,2.16
O=C(Nc1ccon1)c1sc2ccccc2c1Cl,-5.1%,i,1.15
COc1ccccc1N1CCN(C(CNC(=O)c2ccc3c(c2)OCO3)c2cccnc2)CC1 (stereo unspecified),0.3%,i,0.56
CCCOC(=O)C1C2C=C[C@]3(CN(CCc4ccccc4)C(=O)[C@H]13)O2 (stereo partly specified),-10.1%,i,-0.04
COc1ccc(OCC(=O)Nc2ccc3c(c2)nc2n3CCSC2)cc1,-4.5%,i,-0.24
O=C1c2ccncc2C(=O)N1Cc1cccc(Cl)c1,1.1%,i,/
CC(C)OC(=O)c1nnn(-c2nonc2N)c1CN1CCc2ccccc2C1,-1.1%,i,-0.37
COc1cccc(NC(=O)CSCC(=O)Nc2ccccc2)c1,2.1%,i,/
CCCn1nc(NC(=O)c2ccco2)c2cc3ccc(C)cc3nc21,-2.0%,i,1.33
COc1ccccc1NC(=O)CSc1nnc(Cc2cccn2C)n1CCc1ccccc1,-2.0%,i,-0.14
CCOc1ccc(NC(=O)CN(C)c2ccc(S(=O)(=O)N(C(C)C)C(C)C)cn2)cc1OCC,0.7%,i,/
NC(=O)SC/C(=N\S(=O)(=O)c1ccccc1)Nc1ccccc1,-1.4%,i,1.16
Cc1ccc(NC(=O)/C(=C/c2cccc([N+](=O)[O-])c2)NC(=O)C2CCCCC2)c(C)c1,2.6%,i,/
O=C(CN1C(=O)C2C3C=CC(C3)C2C1=O)Nc1cccc2c1CCCC2 (stereo unspecified),4.8%,i,1.43

# Compound profiles (already shown):
# CCCn1nc(NC(=O)c2ccco2)c2cc3ccc(C)cc3nc21 across the screens: Hsc70 ATP site = -2.0%; MT1-MMP reporter = i; WNV protease inh = 1.33
# COc1ccccc1N1CCN(C(CNC(=O)c2ccc3c(c2)OCO3)c2cccnc2)CC1 (stereo unspecified) across the screens: Hsc70 ATP site = 0.3%; MT1-MMP reporter = i; WNV protease inh = 0.56
# CC(C)OC(=O)c1nnn(-c2nonc2N)c1CN1CCc2ccccc2C1 across the screens: Hsc70 ATP site = -1.1%; MT1-MMP reporter = i; WNV protease inh = -0.37

# Continued.
SMILES,Hsc70 ATP site,MT1-MMP reporter,WNV protease inh
CCOC(=O)C1C(c2cccs2)NC(=O)NC1(O)C(F)(F)F (stereo unspecified),-3.1%,i,0.47
CC(C)C(=O)Nc1nnc(Sc2ccc(N(C)C)cc2)s1,-1.3%,i,/
Cc1ccc(C)c(N2CCN(S(=O)(=O)c3ccc4[nH]c(=O)c(=O)[nH]c4c3)CC2)c1,3.7%,i,0.95
c1ccc2[nH]c(-c3nc4ccccc4[nH]3)nc2c1,0.6%,i,1.26
CCCCN1C(=O)c2ccc(C(=O)NC3=NCCS3)cc2C1=O,1.1%,i,-0.13
Cc1cc(C)n(C(=O)c2ccc(Cn3nc(C)c(Br)c3C)o2)n1,-3.7%,i,/
COC(=O)C1C(=O)CC(C)(O)C(C(=O)OC)C1/C=C/c1ccccc1 (stereo unspecified),1.0%,i,-0.41
O=C(Nc1ccc(Cc2ccncc2)cc1)C1CCC(N2C(=O)C3CC=CCC3C2=O)CC1 (stereo unspecified),4.2%,i,/
COc1ccc(-c2csc(NC(=O)Cn3nc(C)cc3C)n2)cc1,8.1%,i,1.39
CCOC(=O)N1CCN(C(=O)CCSCCc2ccncc2)CC1,-7.1%,i,-0.07
COc1ccc2c(c1)CCc1c(C(=O)Nc3ccn(Cc4ccc(C)cc4)n3)noc1-2,-0.3%,i,-2.72
CC(C)n1c(SCC(=O)N2c3ccccc3CCc3ccccc32)nc2c1c(=O)n(C)c(=O)n2C,6.0%,i,/
CCN(CC)S(=O)(=O)c1ccc(NC(=O)COc2c(OC)cccc2OC)cc1,4.5%,i,-0.52
COc1cccc(/C=N/n2c(SC)nnc2-c2ccccc2)c1O,-6.3%,i,1.28
COC(=O)c1ccc(N2C(=O)CC(N(C)CCc3ccc(OC)c(OC)c3)C2=O)cc1 (stereo unspecified),-6.5%,i,-0.77
O=C(Nc1ccccc1-c1ccccc1)C1CCCN(c2ncccn2)C1 (stereo unspecified),-2.6%,i,1.41
CCc1nnc(NC(=O)C2CCN(S(=O)(=O)Cc3ccccc3)CC2)s1,3.8%,i,0.77
O=C(COc1ccc(Cl)cc1Cl)NCCCn1ccnc1,1.4%,i,-0.13
